# 2A firefly: Primary qHTS Assay for Foot and Mouth Disease Virus Antivirals against NCGC Sytravon and CBC Compound Libraries: Firefly Luciferase Signal | hit rate 0.23% among 120,000 | Potency, µM (top dose mostly 57.5 µM), for inactives: at the top dose signal change, negative = less light | HEK cells with a luciferase reporter of 2A StopGo recoding | AID 1745856, 2022; active = well fitted falling curve with a large enough effect; inconclusive = small, poorly fitted or top-dose-only effect; inactive = no such curve, though single readings can be large or run the other way; also: nearly all actives have a fitted effect of over 60% in size; overnight with compound
# 2A Renilla: Primary qHTS Assay for Foot and Mouth Disease Virus Antivirals against NCGC Sytravon and CBC Compound Libraries: Renilla Luciferase Signal | hit rate 0.32% among 120,000 | Potency, µM (doses to about 57.5 µM), inactives show top-dose signal change, negative = less light | HEK cells with a luciferase reporter of 2A StopGo recoding; active means well fitted falling curve with a large enough effect; inconclusive means small, poorly fitted or top-dose-only effect; inactive means no such curve, though single readings can be large or run the other way; also: nearly all actives have a fitted effect of over 55% in size; overnight with compound
# The depositor's hits bear a star; u = inconclusive; [ ] = dose if it differs, or a comment. % is scaled to controls: 0 for no effect and ±100 for the full control effect; potency is read from the fitted curve at half-maximal effect. These rows are one share of the data; count on the stated rates, not on these rows.
# The line under a structure holds: 2A firefly | 2A Renilla
CCc1cc(S(=O)(=O)O)c2cc(C(C)C)cccc1-2
 : -22% | -17%
O=C(NC1(c2ccc(F)cc2)CCC1)c1ccccn1
 : 21% | 8%
Cc1cn2c(=O)c(S(=O)(=O)Nc3ccc(Br)cc3)c(C)nc2s1
 : -5% | 0%
O=C(CSc1nnc(-c2ccc(Cl)cc2)n1CC1CCCO1)Nc1ccc2c(c1)OCCO2 (stereo not given)
 : 116%[activator] | 56%[activator]
Cc1ccc(C(=O)NC(C)c2ccc(C(F)(F)F)cc2)cn1 (stereo not given)
 : 4% | 0%
CCOc1ccc(NC(=O)N2CCN3CCCCC3C2)cc1 (stereo not given)
 : 5% | -2%
Clc1ccc2c(c1)-c1c(cnc3cc(-c4ccccc4)nn13)CO2
 : -3% | -13%
CC12CN3CC(c4ccccc4)(CN(C1)C3c1ccc(Cl)cc1)C2=O (stereo not given)
 : -11% | -9%
COc1ccccc1N1CCN(C(=O)c2nn(C)c3c2CS(=O)(=O)c2ccccc2-3)CC1
 : -7% | -3%
Cc1cc(C(=O)OCC(=O)NC(C)c2ccccc2)c2ccccc2n1 (stereo not given)
 : -10% | -16%
Cc1ccc(S(=O)(=O)c2c(Nc3cc(F)ccc3F)sc(C(=O)c3ccc(F)cc3)c2N)cc1
 : -17% | 8%
COC(=O)[C@H]1[C@H]2C[C@@H]3c4[nH]c5cc(OC)ccc5c4CCN3C[C@H]2C[C@@H](OC(=O)/C=C/c2ccc(O)c(OC)c2)[C@@H]1OC
 : -30% | -15%
CC(C)c1ccc(-c2nc(C(N)=O)c3c(n2)n(-c2ccc4c(c2)OCO4)c(=O)n3C)cc1
 : -8% | -6%
CCNS(=O)(=O)c1cc(-c2nn(C)c(=O)c3ccccc23)ccc1C
 : 15% | 291%[activator]
N#Cc1nc(-c2ccc(S(=O)(=O)N3CCCC3)cc2)oc1NCCCn1ccnc1
 : 5% | 1%
CCOc1ccc(-c2cc3c(=O)n(CC(=O)NCc4ccc(Cl)cc4)ccn3n2)cc1
 : 43%[activator] | -7%
[O-][n+]1cn(Cc2ccccc2)c2ccccc21
 : 3% | 6%
O=C(OCc1ccc([N+](=O)[O-])cc1)c1c2c(nc3ccccc13)CCC2
 : -4% | -2%
CCOc1ccc2c(c1)c(C(C)=O)c(C)n2-c1cccc(Cl)c1
 : -2% | -8%
CCc1nn(CC(=O)NCCc2ccc(Cl)cc2)c(=O)c2cc3c(OC)cccc3n12
 : 33%[activator] | -4%
CCCCCn1c(=O)[nH]c2cc(C(=O)Nc3cc(C)cc(C)c3)ccc2c1=O
 : -10% | -8%
Cc1c(-c2ccccc2)oc2c(C(=O)OCC(=O)NCC3CCCCC3)cccc2c1=O
 : -9% | -6%
CCOC(=O)c1sc2ccccc2c1S(=O)(=O)N1CCN(c2cccc(C)c2)C(C)C1 (stereo not given)
 : 2% | 4%
CCN(CC)CC(=O)NC(C)(C#N)C1CC1 (stereo not given)
 : -6% | -6%
Cc1cc(C)cc(NC(=S)NNC(=O)c2csc(C)c2)c1
 : 68%[activator] | 67%[activator]
CCOC(=O)Cc1ccc(NC(=O)N2CCOc3ccc(C)cc32)cc1
 : 12% | -4%
CCOc1cc(C=O)cc(Cl)c1OC(C)C(=O)OC (stereo not given)
 : 9% | 1%
CCCCOc1ccc2c(-c3ccccc3)cc(=O)oc2c1
 : 65%[activator] | 5%
CCc1nc2ccc(C(=O)N3CCN(c4ccccc4)CC3)cc2nc1CC
 : 45%[activator] | 0%
COc1cccc(/C=C/C(=O)c2ccc(C(=O)O)s2)c1OC
 : 23% | -12%
COc1ccc(N2CCN(C(CNC(=O)c3c(F)cccc3F)c3ccc4c(c3)OCO4)CC2)cc1 (stereo not given)
 : 1% | 28%
O=C(Nc1ccc2nsnc2c1)c1cc(=O)c2ccccc2o1
 : 24% | -4%
COc1cc2c(cc1OC)C(COc1cc(C)cc(C)c1)N(C(=O)C(C)(C)C)CC2 (stereo not given)
 : -8% | 6%
N#Cc1ccc(/C=N/Nc2ccc3ccccc3c2)cc1
 : u | u
COC(=O)C1=CNC=C(C(=O)OC)C1c1ccc(Cl)c(Cl)c1
 : 24% | 53%[activator]
Cc1ccc(S(=O)(=O)N2c3cccc4cccc(c34)S2(=O)=O)cc1
 : 25% | 137%[activator]
Cc1nc(-c2ccc(C)c(S(=O)(=O)N3CCCCC3C)c2)cs1 (stereo not given)
 : u | -6%
CCCCN(CCCC)CCCNC(=O)c1ccc2nc(N3CCCCC3)sc2c1
 : 22% | 7%
CCN1C(=O)N/C(=C/c2cn(CC)c3ccccc23)C1=O
 : 2% | -1%
Cn1c(=O)c(C(=O)O)nn(-c2ccccc2)c1=O
 : -16% | -9%

# (cont.)
structure	2A firefly	2A Renilla
CCOc1ccc(N(CC)S(=O)(=O)N2CCCC(C(=O)NCc3ccccc3Cl)C2)cc1 (stereo not given)	-12%	37%[activator]
Cc1cc(Nc2cccc(Cl)c2)nc2ccc(NC(=O)c3cncc(Br)c3)cc12	u	u
CCCc1cc(=O)n2[nH]c(NC(=O)C3CCCCC3)nc2n1	5%	2%
CCC1CN(C(=O)C2CCN(c3nc4ccccc4o3)CC2)CCO1 (stereo not given)	17%	-4%
O=C(/C=C/c1ccc(-c2ccccc2)o1)c1ccco1	69%[activator]	8%
COc1ccccc1NC(=O)c1ccc(NC(=O)CC2Sc3ccccc3NC2=O)cc1 (stereo not given)	6%	38%[activator]
Fc1cc(Br)ccc1CSc1nc2ncccc2o1	193%[activator]	-4%
CCc1ccc(-c2cc(C(=O)NCc3cccnc3)c3ccccc3n2)cc1	153%[activator]	38%[activator]
Cc1ccc2c(c1)C(c1ccc(F)cc1)N(C(=O)CCc1ccccc1)CC(=O)N2 (stereo not given)	6%	79%[activator]
Cc1ccc(Cc2cnc(NC(=O)C3Cc4ccc(C)cc4C(=O)O3)s2)cc1 (stereo not given)	1%	-3%
c1ccc(-c2ccc(Oc3ncnc4sc(-c5ccccc5)cc34)cc2)cc1	-2%	0%
CCCCNC(=O)c1ccc(C)c(NC(=O)c2ccccc2)c1	24%	27%
COC(=O)c1ccc(/C=c2\s/c(=C\C(=O)c3ccccc3C)n(C)c2=O)cc1	6%	8%
COc1ccc(/C(Cl)=C(/C=N/O)c2ccc(OC)cc2)cc1	0%	40%[activator]
CCOCCCNCc1ccc(Cl)cc1Cl	61%	23%
CCOc1ccc(/C=C/c2nc(C#N)c(NCc3ccc(F)cc3)o2)cc1	-12%	-20%
Clc1ccc(C2NC3=NCN(Cc4ccco4)CN3c3nc4ccccc4n32)cc1 (stereo not given)	1%	0%
CCOc1ccc(C2CC(=O)c3c([nH]c(C(=O)OCC4CCCCC4)c3C)C2)cc1 (stereo not given)	-17%	-11%
Cc1cc2nc(-c3cccc(NC(=O)CSc4ccc(Cl)cc4)c3)oc2cc1C	61%[activator]	6%
O=C(Nc1cc(F)cc(F)c1)C1CCCCC1	8%	23%
CCOC(=O)C1CCC(CN(Cc2ccc(Cl)cc2)S(=O)(=O)c2ccc(Br)cc2)CC1 (stereo not given)	-1%	-3%
COc1ccccc1C(=O)Nc1ccc(S(=O)(=O)Nc2nc(C)cc(C)n2)cc1	1%	-5%
Cc1ccc(C)c(CSc2cn(CCNC(=O)c3ccccc3F)c3ccccc23)c1	7%	12%
COc1ccccc1NC(=O)c1cc(S(=O)(=O)N(C)C2CCCCC2)ccc1F	-5%	61%[activator]

# In the list so far, these contain four or more nitrogen atoms:
structure	2A firefly	2A Renilla
O=C(CSc1nnc(-c2ccc(Cl)cc2)n1CC1CCCO1)Nc1ccc2c(c1)OCCO2 (stereo not given)	116%[activator]	56%[activator]
COc1ccccc1N1CCN(C(=O)c2nn(C)c3c2CS(=O)(=O)c2ccccc2-3)CC1	-7%	-3%
CC(C)c1ccc(-c2nc(C(N)=O)c3c(n2)n(-c2ccc4c(c2)OCO4)c(=O)n3C)cc1	-8%	-6%
N#Cc1nc(-c2ccc(S(=O)(=O)N3CCCC3)cc2)oc1NCCCn1ccnc1	5%	1%
CCOc1ccc(-c2cc3c(=O)n(CC(=O)NCc4ccc(Cl)cc4)ccn3n2)cc1	43%[activator]	-7%
CCc1nn(CC(=O)NCCc2ccc(Cl)cc2)c(=O)c2cc3c(OC)cccc3n12	33%[activator]	-4%
CCc1nc2ccc(C(=O)N3CCN(c4ccccc4)CC3)cc2nc1CC	45%[activator]	0%
CCCCN(CCCC)CCCNC(=O)c1ccc2nc(N3CCCCC3)sc2c1	22%	7%
Cc1cc(Nc2cccc(Cl)c2)nc2ccc(NC(=O)c3cncc(Br)c3)cc12	u	u
CCCc1cc(=O)n2[nH]c(NC(=O)C3CCCCC3)nc2n1	5%	2%
Clc1ccc(C2NC3=NCN(Cc4ccco4)CN3c3nc4ccccc4n32)cc1 (stereo not given)	1%	0%
COc1ccccc1C(=O)Nc1ccc(S(=O)(=O)Nc2nc(C)cc(C)n2)cc1	1%	-5%

# One compound at a time, from the list above:
# CCOc1cc(C=O)cc(Cl)c1OC(C)C(=O)OC (stereo not given) is entered as 2A firefly: 9%; 2A Renilla: 1%
# COc1ccccc1C(=O)Nc1ccc(S(=O)(=O)Nc2nc(C)cc(C)n2)cc1 is entered as 2A firefly: 1%; 2A Renilla: -5%

# Screening results as filed in PubChem BioAssay.
